High-throughput results: PubChem, Broad Institute
HIV Env fusion = blocks HIV Env-driven cell-cell fusion; AID 651610; 360,000 tested, 1.1% active; HeLa-JRFL Env/CEM21 cell fusion, luciferase; inhibition, % at 12.3 µM;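 active = mean replicate inhibition score of at least 50 and every replicate individually at or above 50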;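 also: 0% = plate neutral controls and 100% = maraviroc near 300 nM; one replicate is shown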
Yeast UUG start = yeast start codon fidelity modulation; S. cerevisiae UUG-firefly luciferase reporter, luminescence/redox ratio; 350,000 tested, 0.13% active; AID 602363; activity score, % at 18.7 µM;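 active = replicate mean at a twofold rise or more, about +100% in these data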;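 also: firefly luciferase made from a UUG start codon reports start codon fidelity; reporter light over untreated wells divided by growth signal over untreated wells; some hits fall short of that in this replicate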
Starred values were filed as active, the others as inactive; [ ] = remark or other dose. Only part of the results is shown, so the mix of outcomes need not match the whole.

1	C[C@@H]1CN([C@H](C)CO)C(=O)Cc2cc(NS(=O)(=O)c3ccc(Cl)cc3)ccc2O[C@H]1CN(C)S(=O)(=O)c1cccs1
2	C[C@@H]1CN([C@@H](C)CO)C(=O)c2cc(NC(=O)CCC(F)(F)F)ccc2O[C@@H](C)CCCCO[C@H]1CN(C)S(=O)(=O)c1ccc(F)cc1
3	N#C[C@@H]1[C@H](c2ccc(-c3cccc(F)c3)cc2)[C@@H](CO)N1C(=O)NC1CCCC1
4	COc1ccc(NC(=O)N(C)C[C@@H]2Oc3ccc(NS(=O)(=O)c4cn(C)cn4)cc3CC(=O)N([C@@H](C)CO)C[C@@H]2C)cc1
5	C[C@@H]1CN([C@@H](C)CO)S(=O)(=O)c2ccc(C#Cc3ccncc3)cc2O[C@H]1CN(C)S(=O)(=O)c1ccccc1
6	CCCc1cn(CC[C@H]2CC[C@@H](NC(=O)C3CCC3)[C@@H](CO)O2)nn1
7	O=C(C[C@H]1C=C[C@H](NC(=O)c2ccc3c(c2)OCO3)[C@@H](CO)O1)NCc1ccc(F)cc1
8	C[C@H](CO)N1C[C@H](C)[C@@H](CN(C)Cc2ccc3c(c2)OCO3)Oc2ccc(NC(=O)CCN3CCOCC3)cc2CC1=O

compound no.	1	2	3	4	5	6	7	8
HIV Env fusion	-5[16.7 µM]	-17[16.7 µM]	8[16.7 µM]	0[16.7 µM]	8[16.7 µM]	-3[16.7 µM]	16[16.7 µM]	3[16.7 µM]
Yeast UUG start	-8	38	4	-11	-2	-1	-21	7

9	C[C@@H]1CCCCO[C@@H](CN(C)S(=O)(=O)c2ccc(F)cc2)[C@@H](C)CN([C@@H](C)CO)C(=O)c2cc(NC(=O)Nc3ccc(F)cc3)ccc2O1
10	C[C@H]1CN([C@@H](C)CO)C(=O)c2cccc(NS(=O)(=O)c3ccc(F)cc3)c2O[C@@H]1CN(C)CC1CC1
11	CCNC(=O)Nc1ccc2c(c1)C(=O)N(C)[C@@H]1CC[C@H](CC(=O)NCc3ccccc3F)O[C@@H]1CO2
12	C[C@H]1CN([C@@H](C)CO)C(=O)c2cc(C#CC(C)(C)O)cnc2O[C@H]1CN(C)C(=O)C1CCC1
13	CCNC(=O)C[C@@H]1CC[C@@H]2[C@@H](COc3ccc(NC(=O)Cc4ccccc4)cc3C(=O)N2C)O1
14	O=C(C[C@H]1CC[C@@H](NC(=O)Cc2ccccn2)[C@H](CO)O1)NCCCN1CCOCC1
15	CCCC#Cc1ccc([C@H]2[C@@H](C#N)N(S(=O)(=O)c3cccc(F)c3)[C@@H]2CO)cc1
16	COc1ccc(S(=O)(=O)Nc2ccc3c(c2)CC(=O)N([C@H](C)CO)C[C@@H](C)[C@@H](CN(C)Cc2ccc(Oc4ccccc4)cc2)O3)cc1

compound no.	9	10	11	12	13	14	15	16
HIV Env fusion	-10[16.7 µM]	-1[16.7 µM]	-5[16.7 µM]	-2[16.7 µM]	-1[16.7 µM]	4[16.7 µM]	-6[16.7 µM]	2[16.7 µM]
Yeast UUG start	-6	4	8	1	-8	-17	10	5

17	O=C(C[C@H]1CC[C@H](NC(=O)c2cccc(F)c2)[C@H](CO)O1)NCc1ccccc1
18	C[C@@H]1CN([C@@H](C)CO)C(=O)c2cc(NC(=O)CCC(F)(F)F)ccc2O[C@@H](C)CCCCO[C@@H]1CN(C)C(=O)c1ccccc1
19	COc1ccc(NC(=O)Nc2ccc3c(c2)C(=O)N([C@@H](C)CO)C[C@@H](C)[C@@H](CN(C)C(=O)Nc2ccc(C(F)(F)F)cc2)OCCCC[C@@H](C)O3)cc1
20	C[C@H](CO)N1C[C@H](C)[C@H](CN(C)C(=O)Cc2ccccc2)Oc2cc(C#CC3(O)CCCC3)ccc2S1(=O)=O
21	C[C@@H]1CN([C@H](C)CO)C(=O)c2cccc(NC(=O)C3CCCCC3)c2O[C@@H]1CN(C)S(=O)(=O)c1cccs1
22	COCC(=O)Nc1ccc2c(c1)C(=O)N(C)[C@H]1CC[C@@H](CC(=O)O)O[C@H]1CO2
23	C[C@@H](NC(=O)C[C@H]1C=C[C@H](NS(=O)(=O)c2cccc(F)c2)[C@@H](CO)O1)c1ccccc1
24	C[C@@H]1CCCCO[C@@H](CN(C)S(C)(=O)=O)[C@@H](C)CN([C@H](C)CO)C(=O)c2cc(NC(=O)Nc3ccccc3)ccc2O1

compound no.	17	18	19	20	21	22	23	24
HIV Env fusion	-4[16.7 µM]	29[16.7 µM]	14[16.7 µM]	-33[16.7 µM]	-5[16.7 µM]	-26[16.7 µM]	25[16.7 µM]	-3[16.7 µM]
Yeast UUG start	-11	26	-21	3	4	-14	-7	-10

25	Cc1ccc(S(=O)(=O)N[C@H]2CC[C@H](CC(=O)NCCc3ccncc3)O[C@H]2CO)cc1
26	Cc1noc(C)c1NC(=O)Nc1cccc2c1O[C@H](CN(C)Cc1ccc(Oc3ccccc3)cc1)[C@@H](C)CN([C@H](C)CO)C2=O
27	CC(C)NC(=O)Nc1ccc2c(c1)CC(=O)N([C@@H](C)CO)C[C@H](C)[C@@H](CN(C)S(C)(=O)=O)O2
28	CC(C)NC(=O)Nc1ccc2c(c1)CC(=O)N([C@@H](C)CO)C[C@@H](C)[C@@H](CN(C)Cc1ccc(-c3ccccc3)cc1)O2
29	CNC[C@H]1Oc2c(N)cccc2C(=O)N([C@@H](C)CO)C[C@@H]1C
30	O=C(C[C@H]1CC[C@@H]2[C@H](COC[C@@H](O)CN2CCC(F)(F)F)O1)NCc1ccc(Oc2ccccc2)cc1
31	CC(C)CC#Cc1ccc2c(c1)O[C@H](CN(C)S(=O)(=O)c1cccc(F)c1)[C@@H](C)CN([C@H](C)CO)S2(=O)=O
32	C[C@@H]1CN([C@@H](C)CO)S(=O)(=O)c2ccc(-c3cncnc3)cc2O[C@H]1CN(C)C(=O)c1ccc2c(c1)OCO2

compound no.	25	26	27	28	29	30	31	32
HIV Env fusion	-14[16.7 µM]	-11[16.7 µM]	8[16.7 µM]	-8[16.7 µM]	-8[16.7 µM]	-21[16.7 µM]	26[16.7 µM]	6[16.7 µM]
Yeast UUG start	14	4	3	6	0	-10	-4	-1

33	COc1ccc(S(=O)(=O)N(C)C[C@H]2Oc3ccc(NS(=O)(=O)c4ccc(Cl)cc4)cc3CC(=O)N([C@@H](C)CO)C[C@H]2C)cc1
34	C[C@H](CO)N1C[C@H](C)[C@H](CN(C)S(C)(=O)=O)Oc2cc(Br)ccc2S1(=O)=O
35	COc1ccccc1CNC(=O)C[C@H]1C[C@H]2c3cc(NC(=O)C4CCC4)ccc3O[C@H]2[C@@H](CO)O1
36	C[C@H](CO)N1C[C@H](C)[C@@H](CN(C)C(=O)Nc2cccc3ccccc23)Oc2ccc(NC(=O)Nc3ccc4c(c3)OCO4)cc2CC1=O
37	CCNC(=O)C[C@H]1CC[C@@H]2[C@@H](COc3ccc(NC(=O)Cc4ccccc4)cc3C(=O)N2C)O1
38	C[C@H]1CCCCO[C@@H](CN(C)C(=O)NC2CCCCC2)[C@@H](C)CN([C@@H](C)CO)C(=O)c2cc(NS(=O)(=O)c3ccccc3)ccc2O1
39	CCC(=O)Nc1ccc2c(c1)C(=O)N(C)C[C@@H](OC)[C@@H](C)CN(Cc1ccccc1)[C@@H](C)CO2
40	C[C@@H]1CN([C@@H](C)CO)C(=O)c2cccc(NS(=O)(=O)c3cn(C)cn3)c2O[C@@H]1CN(C)Cc1ccc(Cl)c(Cl)c1

compound no.	33	34	35	36	37	38	39	40
HIV Env fusion	-6[16.7 µM]	12[16.7 µM]	-5[16.7 µM]	2[16.7 µM]	10[16.7 µM]	-25[16.7 µM]	11[16.7 µM]	-2[16.7 µM]
Yeast UUG start	4	9	4	-10	-11	8	-1	-14

41	COc1ccc(NC(=O)Nc2ccc3c(c2)C(=O)N([C@@H](C)CO)C[C@@H](C)[C@H](CN(C)CC2CCCCC2)OCCCC[C@H](C)O3)cc1
42	C[C@@H]1CCCCO[C@H](CN(C)C(=O)c2ccncc2)[C@H](C)CN([C@H](C)CO)C(=O)c2cc(NC(=O)NC3CCCCC3)ccc2O1
43	CO[C@@H]1CN(C)C(=O)c2cc(NC(=O)c3cnccn3)ccc2OC[C@H](C)N(C(=O)C2CC2)C[C@@H]1C
44	Cc1ccccc1-c1cnc2c(c1)C(=O)N([C@H](C)CO)C[C@@H](C)[C@@H](CN(C)C(=O)c1cccnc1)O2
45	O=C(C[C@H]1C=C[C@H](NC(=O)Nc2ccc3c(c2)OCO3)[C@@H](CO)O1)NCCCN1CCOCC1
46	C[C@H](CO)N1C[C@H](C)[C@H](CN(C)S(=O)(=O)c2ccccc2)Oc2ccc(NC(=O)Nc3cccc4ccccc34)cc2CC1=O
47	C[C@@H]1CCCCO[C@@H](CN(C)Cc2ccccc2)[C@H](C)CN([C@@H](C)CO)C(=O)c2cc(NC(=O)CCCN(C)C)ccc2O1
48	CN(C)CCCNC(=O)C[C@H]1CC[C@H]2[C@@H](COC[C@@H](O)CN2CC2CCCC2)O1

compound no.	41	42	43	44	45	46	47	48
HIV Env fusion	10[16.7 µM]	-20[16.7 µM]	-1[16.7 µM]	-21[16.7 µM]	1[16.7 µM]	85*[16.7 µM]	-6[16.7 µM]	-18[16.7 µM]
Yeast UUG start	16	10	-3	-5	-12	-13	5	-9

49	C[C@@H]1CCCCO[C@H](CN(C)C(=O)NC2CCCCC2)[C@@H](C)CN([C@@H](C)CO)C(=O)c2cc(NC(=O)CCC(F)(F)F)ccc2O1
50	COc1ccc(S(=O)(=O)Nc2cccc3c2O[C@H](CN(C)Cc2ccccc2)[C@@H](C)CN([C@@H](C)CO)C3=O)cc1
51	C[C@@H]1CN([C@H](C)CO)C(=O)c2cc(NC(=O)c3ccccc3)ccc2O[C@@H](C)CCCCO[C@@H]1CN(C)S(=O)(=O)c1ccc(F)cc1
52	COc1ccc(NC(=O)N(C)C[C@@H]2Oc3cc(-c4ccc(C)cc4)ccc3S(=O)(=O)N([C@@H](C)CO)C[C@H]2C)cc1
53	O=C(C[C@@H]1C[C@H]2c3cc(NC(=O)c4cccnc4)ccc3O[C@H]2[C@@H](CO)O1)NCc1cccc(F)c1
54	COc1cccc(C#Cc2cnc3c(c2)C(=O)N([C@@H](C)CO)C[C@@H](C)[C@@H](CN(C)C)O3)c1
55	CC(C)NC(=O)N(C)C[C@@H]1Oc2ccc(NS(C)(=O)=O)cc2C(=O)N([C@H](C)CO)C[C@H]1C
56	COc1ccccc1-c1ccc([C@@H]2[C@@H](CO)N(C(=O)C3CC3)[C@H]2C#N)cc1

compound no.	49	50	51	52	53	54	55	56
HIV Env fusion	-29[16.7 µM]	-23[16.7 µM]	-8[16.7 µM]	-4[16.7 µM]	2[16.7 µM]	-5[16.7 µM]	24[16.7 µM]	3[16.7 µM]
Yeast UUG start	-4	11	-7	-8	-11	0	3	5

57	O=C(NCC[C@H]1CC[C@@H](NS(=O)(=O)c2cccc(F)c2)[C@H](CO)O1)C1CC1
58	C[C@H]1CN([C@@H](C)CO)C(=O)CCCn2cc(nn2)CO[C@H]1CN(C)S(=O)(=O)c1ccc2ccccc2c1
59	O=C(Nc1ccccc1F)N[C@@H]1CC[C@@H](CCNC(=O)C2CCOCC2)O[C@H]1CO
60	COCC(=O)N(C)C[C@H]1Oc2cc(C#Cc3ccccc3)ccc2S(=O)(=O)N([C@@H](C)CO)C[C@@H]1C
61	CCc1csc(N2[C@H](C#N)[C@H](c3ccc(-c4ccc(F)cc4)cc3)[C@@H]2CO)n1
62	C[C@@H]1CN([C@H](C)CO)C(=O)Cc2cc(NS(=O)(=O)c3cccs3)ccc2O[C@@H]1CN(C)C(=O)Nc1ccc2c(c1)OCO2
63	C[C@H]1CN([C@@H](C)CO)C(=O)c2cc(C#CC3CC3)cnc2O[C@H]1CN(C)C(=O)CC1CC1
64	CO[C@H]1CN(C)C(=O)c2cc(NC(=O)c3ccccc3)ccc2OC[C@H](C)NC[C@H]1C
65	C[C@@H]1CN([C@@H](C)CO)C(=O)c2cc(NS(=O)(=O)c3ccccc3)ccc2O[C@@H](C)CCCCO[C@H]1CN(C)Cc1ccc(C(F)(F)F)cc1
66	O=C(Cc1ccccc1)N[C@@H]1CC[C@@H](CC(=O)N2CCCCC2)O[C@@H]1CO
67	C[C@@H]1CN([C@H](C)CO)C(=O)c2cc(/C=C/c3ccccc3)cnc2O[C@@H]1CN(C)C(=O)c1cccnc1

compound no.	57	58	59	60	61	62	63	64	65	66	67
HIV Env fusion	-4[16.7 µM]	3[16.7 µM]	3[16.7 µM]	1[16.7 µM]	16[16.7 µM]	-8[16.7 µM]	-11[16.7 µM]	-19[16.7 µM]	8[16.7 µM]	17[16.7 µM]	23[16.7 µM]
Yeast UUG start	-15	10	-10	10	-13	0	13	12	58	2	-15

Complete entries, quoted from the list.
Shown for C[C@@H]1CN([C@@H](C)CO)S(=O)(=O)c2ccc(-c3cncnc3)cc2O[C@H]1CN(C)C(=O)c1ccc2c(c1)OCO2 = HIV Env fusion = 6[16.7 µM]; Yeast UUG start = -1
Shown for CC(C)NC(=O)N(C)C[C@@H]1Oc2ccc(NS(C)(=O)=O)cc2C(=O)N([C@H](C)CO)C[C@H]1C = HIV Env fusion = 24[16.7 µM]; Yeast UUG start = 3
